A1 apoptosis 2: A1 inhibition read as caspase activation | AID 2465 | caspase activation, % (concentration not given with the values) | MEF A1-2A-BIM cells, caspase-Glo luminescence, 3 h; percent of clofoctol response, DMSO zero | 24,000 tested, under 10 active; in the data active = caspase activation above about 5.9%;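 also: wells of about 30 µL received 50 nL stock; the first replicate is given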
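Evaluation: Caspase-3/7 activity from luminescence increase | Assay system: A1-2A-BIM mouse embryonic fibroblasts | Quantity: 2500 MEF cells/well | Medium: RPMI-1640 plus 10% FBS | Detection: Caspase-Glo 3/7 luminescence, 1 h at room temperature | Dosing: 50 nL compound per well, pinned | Timing: Cells settled overnight, compound exposure 3 h at 37 °C, 5% CO2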
* hit, by the source's call.

SMILES	A1 apoptosis 2
C[C@@H]1CCCCO[C@@H](CN(C)C(=O)Nc2ccc3c(c2)OCO3)[C@@H](C)CN([C@H](C)CO)C(=O)c2cc(NC(=O)Nc3ccccc3)ccc2O1	-0.2
C[C@@H]1CN([C@H](C)CO)C(=O)c2cc(NC(=O)CCCN(C)C)ccc2O[C@@H](C)CCCCO[C@H]1CN(C)S(=O)(=O)c1ccccc1	0.3
C[C@@H]1CCCCO[C@H](CN(C)Cc2ccc(Cl)c(Cl)c2)[C@@H](C)CN([C@H](C)CO)C(=O)c2cc(NC(=O)CCCCCC(=O)Nc3ccccc3N)ccc2O1	-0.2
COc1ccc(S(=O)(=O)Nc2ccc3c(c2)C(=O)N([C@@H](C)CO)C[C@H](C)[C@@H](CN(C)S(=O)(=O)c2ccc(C)cc2)OCCCC[C@@H](C)O3)cc1	0.8
Cc1ccc(S(=O)(=O)Nc2ccc3c(c2)C(=O)N([C@@H](C)CO)C[C@@H](C)[C@@H](CN(C)Cc2ccc(C(F)(F)F)cc2)OCCCC[C@@H](C)O3)cc1	0.9
Cc1ccc(S(=O)(=O)Nc2ccc3c(c2)CC(=O)N([C@@H](C)CO)C[C@@H](C)[C@@H](CN(C)S(=O)(=O)c2cn(C)cn2)O3)cc1	0.1
CC(C)NC(=O)N(C)C[C@H]1OCCCC[C@@H](C)Oc2ccc(NC(=O)Nc3ccc(C(F)(F)F)cc3)cc2C(=O)N([C@@H](C)CO)C[C@H]1C	-0.4
C[C@@H]1CN([C@@H](C)CO)C(=O)Cc2cc(NC(=O)Nc3ccccc3)ccc2O[C@H]1CN(C)Cc1ccc(Oc2ccccc2)cc1	0.6
C[C@H](CO)N1C[C@H](C)[C@@H](CN(C)CC2CCCCC2)Oc2c(NS(=O)(=O)c3ccc(Cl)cc3)cccc2C1=O	0.7
CC(C)NC(=O)N(C)C[C@H]1Oc2ccc(NS(=O)(=O)c3ccccc3)cc2CC(=O)N([C@H](C)CO)C[C@@H]1C	0.6
COc1ccc(CN(C)C[C@H]2Oc3ccc(NC(=O)Nc4ccc5c(c4)OCO5)cc3C(=O)N([C@H](C)CO)C[C@@H]2C)cc1	-1.1
C[C@H]1CN([C@@H](C)CO)C(=O)Cc2cc(NC(=O)c3ccncc3)ccc2O[C@H]1CN(C)C(=O)Nc1ccccc1	0.6
C[C@H](CO)N1C[C@H](C)[C@H](CN(C)C(=O)Nc2cccc3ccccc23)OCCCC[C@H](C)Oc2ccc(NC(=O)c3ccncc3)cc2C1=O	1.1
COc1ccc(NC(=O)N(C)C[C@@H]2OCCCC[C@H](C)Oc3ccc(NC(=O)Nc4ccc(C(F)(F)F)cc4)cc3C(=O)N([C@H](C)CO)C[C@@H]2C)cc1	-0.2
C[C@H](CO)N1C[C@H](C)[C@@H](CN(C)C(=O)Nc2ccccc2)Oc2ccc(NC(=O)Nc3ccc4c(c3)OCO4)cc2CC1=O	-0.3
C[C@@H]1CN([C@@H](C)CO)C(=O)c2cc(NC(=O)Nc3ccc4c(c3)OCO4)ccc2O[C@H]1CN(C)Cc1ccc(C(F)(F)F)cc1	-0.6
COc1ccc(NC(=O)Nc2ccc3c(c2)C(=O)N([C@@H](C)CO)C[C@@H](C)[C@@H](CN(C)C(=O)CCCN(C)C)OCCCC[C@H](C)O3)cc1	0.0
CCOC(=O)N(C)C[C@@H]1OCc2cnnn2CCCC(=O)N([C@@H](C)CO)C[C@H]1C	0.1
CC(C)NC(=O)Nc1ccc2c(c1)C(=O)N([C@@H](C)CO)C[C@@H](C)[C@@H](CN(C)S(=O)(=O)c1ccc(Cl)cc1)OCCCC[C@H](C)O2	-1.2
Cc1noc(C)c1NC(=O)N(C)C[C@@H]1OCCCC[C@H](C)Oc2ccc(NC(=O)c3ccccc3)cc2C(=O)N([C@@H](C)CO)C[C@H]1C	0.0
C[C@H](CO)N1C[C@H](C)[C@H](CN(C)S(=O)(=O)c2ccc(Cl)cc2)Oc2c(NC(=O)NC3CCCCC3)cccc2C1=O	1.2
C[C@@H]1CN([C@@H](C)CO)C(=O)Cc2cc(NC(=O)CCCN(C)C)ccc2O[C@H]1CN(C)S(=O)(=O)c1ccc(Cl)cc1	-0.8
COc1ccc(NC(=O)Nc2ccc3c(c2)C(=O)N([C@@H](C)CO)C[C@@H](C)[C@H](CN(C)S(=O)(=O)c2ccc(F)cc2)O3)cc1	0.4
C[C@H]1CCCCO[C@@H](CN(C)Cc2ccccc2)[C@@H](C)CN([C@@H](C)CO)C(=O)c2cc(NS(=O)(=O)c3cccs3)ccc2O1	-0.3
C[C@@H]1CN([C@H](C)CO)C(=O)Cc2cc(NC(=O)NC3CCCCC3)ccc2O[C@@H]1CN(C)S(=O)(=O)c1cn(C)cn1	-1.5
C[C@H](CO)N1C[C@H](C)[C@@H](CN(C)Cc2ccc(Cl)c(Cl)c2)Oc2ccc(NC(=O)Cc3cn(C)c4ccccc34)cc2C1=O	-0.5
C[C@@H]1CN([C@@H](C)CO)C(=O)c2cccc(NC(=O)c3ccc(-c4nccs4)cc3)c2O[C@H]1CN(C)S(=O)(=O)c1cccs1	-1.6
C[C@H](CO)N1C[C@H](C)[C@H](CN(C)C(=O)NC2CCCCC2)Oc2ccc(NC(=O)Nc3ccc(F)cc3)cc2C1=O	-1.6
C[C@@H]1CCCCO[C@H](CN(C)C)[C@H](C)CN([C@@H](C)CO)C(=O)c2cc(NC(=O)c3ccccc3)ccc2O1	1.3
C[C@@H]1CN([C@@H](C)CO)C(=O)c2cccc(NS(=O)(=O)c3cn(C)cn3)c2O[C@H]1CN(C)Cc1ccccc1	-0.9
C[C@@H]1CN([C@H](C)CO)C(=O)Cc2cc(NC(=O)Cc3ccccc3)ccc2O[C@@H]1CN(C)C(=O)Nc1ccccc1	-0.9
C[C@@H]1CN([C@H](C)CO)C(=O)Cc2cc(N(C)C)ccc2O[C@@H]1CN(C)Cc1ccc(-c2ccccc2)cc1	-1.1
COC(=O)[C@H](Cc1ccc(N=[N+]=[N-])cc1)N1CC(/C=C/[C@@H](O)Cc2ccccc2)=C[C@@H](C2CC2)O1	-0.3
C[C@@H]1CCCCO[C@H](CN(C)C(=O)Cc2ccccc2)[C@H](C)CN([C@@H](C)CO)C(=O)c2cc(NS(C)(=O)=O)ccc2O1	0.2
COc1ccc(NC(=O)Nc2ccc3c(c2)CC(=O)N([C@@H](C)CO)C[C@@H](C)[C@H](CN(C)C(=O)Nc2ccc4c(c2)OCO4)O3)cc1	-0.6
C[C@@H]1CN([C@@H](C)CO)C(=O)Cc2cc(NC(=O)CCCCCC(=O)Nc3ccccc3N)ccc2O[C@H]1CN(C)S(=O)(=O)c1cccs1	0.1
Cc1noc(C)c1S(=O)(=O)Nc1ccc2c(c1)C(=O)N([C@H](C)CO)C[C@H](C)[C@H](CN(C)S(=O)(=O)c1ccc(F)cc1)OCCCC[C@H](C)O2	-0.6
C[C@H](CO)N1C[C@H](C)[C@@H](CN(C)Cc2ccccc2)Oc2ccc(NC(=O)CCN3CCOCC3)cc2C1=O	1.4
C[C@@H]1CCCCO[C@@H](CN(C)C(=O)CCCN(C)C)[C@H](C)CN([C@@H](C)CO)C(=O)c2cc(N(C)C)ccc2O1	0.7
C[C@@H]1CCCCO[C@H](CN(C)C(=O)Nc2ccc3c(c2)OCO3)[C@H](C)CN([C@H](C)CO)C(=O)c2cc(NS(=O)(=O)c3cn(C)cn3)ccc2O1	0.2
C=CC[C@H](OC(=O)Nc1ccc(SC)cc1)c1ccc(OCCO)cc1	-1.0
Cc1noc(C)c1S(=O)(=O)Nc1ccc2c(c1)C(=O)N([C@@H](C)CO)C[C@H](C)[C@@H](CN(C)Cc1ccccc1)OCCCC[C@@H](C)O2	-0.7
C[C@H](CO)N1C[C@H](C)[C@H](CN(C)C(=O)Nc2ccc3c(c2)OCO3)Oc2ccc(NS(=O)(=O)c3cn(C)cn3)cc2C1=O	0.9
COc1ccc(NC(=O)N(C)C[C@H]2Oc3c(NC(=O)c4ccncc4)cccc3C(=O)N([C@H](C)CO)C[C@H]2C)cc1	-0.1
C[C@H]1CN([C@@H](C)CO)C(=O)Cc2cc(NC(=O)Nc3ccccc3)ccc2O[C@H]1CN(C)Cc1ccncc1	0.2
COc1ccc(CN(C)C[C@@H]2OCCCC[C@@H](C)Oc3ccc(NC(=O)c4ccccc4)cc3C(=O)N([C@H](C)CO)C[C@@H]2C)cc1	-1.2
C[C@@H]1CCCCO[C@H](CN(C)Cc2ccccc2)[C@H](C)CN([C@H](C)CO)C(=O)c2cc(NC(=O)c3ccccc3)ccc2O1	-0.5
C[C@H](CO)N1C[C@H](C)[C@H](CN(C)C(=O)NC2CCCCC2)Oc2ccc(N(C)C)cc2C1=O	-1.6
C[C@@H]1CN([C@@H](C)CO)C(=O)Cc2cc(NC(=O)Nc3cccc4ccccc34)ccc2O[C@@H]1CN(C)Cc1ccc2c(c1)OCO2	-0.2
O=C(CCCCCCC(=O)Nc1ccccc1O)N/N=C/c1ccc([N+](=O)[O-])c(O)c1	-0.6
Cc1noc(C)c1NC(=O)Nc1cccc2c1O[C@@H](CN(C)Cc1ccc(C(=O)O)cc1)[C@@H](C)CN([C@H](C)CO)C2=O	1.0
Cc1ccc(S(=O)(=O)Nc2ccc3c(c2)C(=O)N([C@H](C)CO)C[C@@H](C)[C@H](CN(C)Cc2ccncc2)OCCCC[C@@H](C)O3)cc1	0.2
O=C(CCCCCCC(=O)Nc1ccccc1O)N/N=C/c1cc(O)ccc1Br	-1.1
COc1ccc(S(=O)(=O)Nc2ccc3c(c2)C(=O)N([C@@H](C)CO)C[C@H](C)[C@H](CN(C)S(=O)(=O)c2cn(C)cn2)O3)cc1	0.0
C[C@H](CO)N1C[C@H](C)[C@H](CN(C)S(=O)(=O)c2ccc(F)cc2)Oc2ccc(NC(=O)C3CC3)cc2CC1=O	0.0
C[C@@H]1CN([C@@H](C)CO)C(=O)Cc2cc(NC(=O)CCN3CCOCC3)ccc2O[C@@H]1CN(C)C(=O)Nc1cccc2ccccc12	-0.3
C[C@@H]1CN([C@@H](C)CO)C(=O)c2cc(NS(=O)(=O)c3ccc(F)cc3)ccc2O[C@H]1CN(C)Cc1ccc(C(F)(F)F)cc1	-1.5
C[C@@H]1CCCCO[C@@H](CN(C)Cc2ccc(C(F)(F)F)cc2)[C@H](C)CN([C@@H](C)CO)C(=O)c2cc(NS(C)(=O)=O)ccc2O1	1.5
COc1ccc(S(=O)(=O)Nc2ccc3c(c2)C(=O)N([C@H](C)CO)C[C@@H](C)[C@@H](CN(C)C(=O)Nc2ccc(C(F)(F)F)cc2)OCCCC[C@@H](C)O3)cc1	-0.3
C[C@@H]1CCCCO[C@H](CN(C)S(=O)(=O)c2cccs2)[C@@H](C)CN([C@H](C)CO)C(=O)c2cc(NC(=O)Nc3ccc4c(c3)OCO4)ccc2O1	1.3

New compounds follow
SMILES	A1 apoptosis 2
C[C@H](CO)N1C[C@H](C)[C@H](CN(C)Cc2ccc(C(=O)O)cc2)OCCCC[C@H](C)Oc2ccc(NC(=O)Nc3ccc(C(F)(F)F)cc3)cc2C1=O	-0.5
Cc1ccc(S(=O)(=O)N(C)C[C@@H]2Oc3ccc(NS(=O)(=O)c4cn(C)cn4)cc3C(=O)N([C@H](C)CO)C[C@H]2C)cc1	1.0
C[C@@H]1CN([C@@H](C)CO)C(=O)c2cccc(NC(=O)Nc3ccc(F)cc3)c2O[C@@H]1CN(C)Cc1ccc(C(=O)O)cc1	0.1
O=C(CCCCCCC(=O)Nc1ccccc1O)N/N=C/c1cc(O)ccc1[N+](=O)[O-]	0.2
COc1ccc(CN(C)C[C@H]2OCCCC[C@@H](C)Oc3ccc(NC(=O)Nc4cccc5ccccc45)cc3C(=O)N([C@H](C)CO)C[C@@H]2C)cc1	-1.1
C[C@@H]1CCCCO[C@@H](CN(C)Cc2ccccc2)[C@H](C)CN([C@@H](C)CO)C(=O)c2cc(NC(=O)Cc3ccccc3)ccc2O1	-0.3
C[C@@H]1CN([C@H](C)CO)C(=O)c2cccc(NC(=O)C3CCCCC3)c2O[C@@H]1CN(C)C(=O)Nc1ccc2c(c1)OCO2	-1.7
Cc1noc(C)c1S(=O)(=O)N(C)C[C@@H]1Oc2ccc(NS(=O)(=O)c3cccs3)cc2CC(=O)N([C@@H](C)CO)C[C@@H]1C	-0.6
CNC[C@H]1Oc2c(NS(=O)(=O)c3ccc(OC)cc3)cccc2C(=O)N([C@H](C)CO)C[C@@H]1C	-0.4

Reformatted as comma-separated lines: entries from further up
SMILES,A1 apoptosis 2
COc1ccc(S(=O)(=O)Nc2ccc3c(c2)C(=O)N([C@H](C)CO)C[C@@H](C)[C@@H](CN(C)C(=O)Nc2ccc(C(F)(F)F)cc2)OCCCC[C@@H](C)O3)cc1,-0.3
C[C@@H]1CCCCO[C@H](CN(C)S(=O)(=O)c2cccs2)[C@@H](C)CN([C@H](C)CO)C(=O)c2cc(NC(=O)Nc3ccc4c(c3)OCO4)ccc2O1,1.3
C[C@H](CO)N1C[C@H](C)[C@H](CN(C)Cc2ccc(C(=O)O)cc2)OCCCC[C@H](C)Oc2ccc(NC(=O)Nc3ccc(C(F)(F)F)cc3)cc2C1=O,-0.5
Cc1ccc(S(=O)(=O)N(C)C[C@@H]2Oc3ccc(NS(=O)(=O)c4cn(C)cn4)cc3C(=O)N([C@H](C)CO)C[C@H]2C)cc1,1.0
C[C@@H]1CN([C@@H](C)CO)C(=O)c2cccc(NC(=O)Nc3ccc(F)cc3)c2O[C@@H]1CN(C)Cc1ccc(C(=O)O)cc1,0.1
O=C(CCCCCCC(=O)Nc1ccccc1O)N/N=C/c1cc(O)ccc1[N+](=O)[O-],0.2
COc1ccc(CN(C)C[C@H]2OCCCC[C@@H](C)Oc3ccc(NC(=O)Nc4cccc5ccccc45)cc3C(=O)N([C@H](C)CO)C[C@@H]2C)cc1,-1.1
C[C@@H]1CCCCO[C@@H](CN(C)Cc2ccccc2)[C@H](C)CN([C@@H](C)CO)C(=O)c2cc(NC(=O)Cc3ccccc3)ccc2O1,-0.3
C[C@@H]1CN([C@H](C)CO)C(=O)c2cccc(NC(=O)C3CCCCC3)c2O[C@@H]1CN(C)C(=O)Nc1ccc2c(c1)OCO2,-1.7

Screens from PubChem BioAssay.

These rows are one share of the data; the hit share may differ from the screen's.
